gsp ag – gsp mutant agonism; gsp mutant cells, cAMP HTRF, 30 min; control for the full effect not named in the record; Potency, µM (top dose mostly 76.9 µM), inactives show top-dose activation (cAMP increase), actives largely listed as activators; actives 0.13% (n = 340,000); AID 624287; active = well fitted activation curve with a large enough effect; inconclusive = small, poorly fitted or top-dose-only effect, or another doubt; inactive = no such curve, though single readings can be large or run the other way; cell line not stated here;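 also: phosphodiesterase inhibitor Ro 20-1724 added with compounds to block cAMP breakdown; potency is read from the fitted curve at half-maximal effect; nearly all actives have a fitted effect of over 60% in size; about a fifth of the inactives were tested at one dose only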
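Cells stably selected in G418 were plated at 2000/well, grown 16-24 hr, then given compounds in DMSO with the PDE inhibitor […] (300 uM solution added) for 30 min at 37C; cAMP was read by HTRF.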
ClpP mod – qHTS Assay for Activators of ClpP; actives 1.9% (n = 340,000); purified B. subtilis ClpP, FRET peptide cleavage, 20 min; AID 651965, 2013; Potency, µM (series often up to 57.5 µM), for the others: at the top dose activity change, negative = active; active = well fitted falling curve with a large enough effect; inconclusive = small, poorly fitted or top-dose-only effect; inactive = no such curve, though single readings can be large or run the other way; also: potency is read from the fitted curve at half-maximal effect; the source files actives as falling curves though it sought activators and does not explain the sign; nearly all actives have a fitted effect of over 65% in size; many hits overshoot -100%
Target sequence (P80244 whole entry, looked up): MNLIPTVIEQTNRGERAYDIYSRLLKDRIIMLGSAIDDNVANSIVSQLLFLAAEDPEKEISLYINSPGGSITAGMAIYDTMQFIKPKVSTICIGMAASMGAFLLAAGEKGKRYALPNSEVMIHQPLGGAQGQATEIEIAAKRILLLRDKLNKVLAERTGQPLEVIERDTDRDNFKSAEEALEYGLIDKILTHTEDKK
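Purified B. subtilis ClpP, 10 microg/mL final in Tris/HCl pH8 with KCl, BSA, glycerol and Tween-20, cleaved an Abz/nitrotyrosine-quenched decapeptide. Fluorescence (ex 320, em 430) was read at 0 and 20 min at room temperature. Delta was normalized to 5.8 microM ADEP and DMSO/no-enzyme controls.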
TRPV1 PAM – human TRPV1 potentiation | TRPV1-expressing cells, Fluo-8 calcium influx, capsaicin EC20 potentiation; host cell line not named in the record; control for the full effect not named in the record | potentiation, % at 8.33 µM | actives 0.02% (n = 320,000) | Q8NER1; active means potentiation above 80%; inconclusive means 30% to 80%; inactive means below 30%; also: 0% is about no effect
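Cells expressing TRPV1 were dye-loaded with Fluo-8 and read kinetically: 10 s baseline, 3 min after compound (agonist portion), then 2 min after EC20 capsaicin (allosteric enhancer portion). Calcium-bound dye fluorescence at 480/520 nm.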
TRPML1 inh – blocks the human TRPML1 channel; AID 624415; actives 0.02% (n = 390,000); activity change, negative = inhibition, % (concentration not given with the values); TRPML1-inducible cells, Ca2+ dye fluorescence, FDSS; active compounds read low; inhibition of EC80 agonist-evoked calcium signal; in the data active means activity change below about -50%; inconclusive means about -30% to -50%; inactive means above about -30%;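 also: stimulus is agonist 54-4 at its EC80 concentration; % is scaled to controls: 0 for no effect and ±100 for the full control effect; the text of the record puts the active cut at -80%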
Target sequence (Q9GZU1 whole entry, looked up): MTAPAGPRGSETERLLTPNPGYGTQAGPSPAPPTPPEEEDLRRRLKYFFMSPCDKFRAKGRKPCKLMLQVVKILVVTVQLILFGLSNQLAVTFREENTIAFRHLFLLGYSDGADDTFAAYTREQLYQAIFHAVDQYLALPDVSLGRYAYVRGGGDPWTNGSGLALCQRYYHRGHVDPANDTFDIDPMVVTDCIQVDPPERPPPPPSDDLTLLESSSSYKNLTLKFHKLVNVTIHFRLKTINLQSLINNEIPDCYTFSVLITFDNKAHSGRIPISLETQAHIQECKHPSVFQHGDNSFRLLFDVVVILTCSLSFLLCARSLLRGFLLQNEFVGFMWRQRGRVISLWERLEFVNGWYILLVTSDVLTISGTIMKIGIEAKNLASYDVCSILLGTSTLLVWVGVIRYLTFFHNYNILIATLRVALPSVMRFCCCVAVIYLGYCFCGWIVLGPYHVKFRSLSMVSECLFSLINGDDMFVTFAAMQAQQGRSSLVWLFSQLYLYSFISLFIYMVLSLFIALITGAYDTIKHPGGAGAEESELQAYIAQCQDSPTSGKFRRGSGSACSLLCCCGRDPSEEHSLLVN
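Calcium fluorescence in TRPML1-DL cells induced overnight with Tet: a 110 s read after compound pin addition, then a 110 s antagonist read after challenge with 54-4 at 4 uM final (EC80).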
gsp antagonist – gsp mutant antagonism; actives 0.4% (n = 340,000); gsp-mutant cells, cAMP HTRF, 30 min; control for the full effect not named in the record; AID 624288; Potency, µM (top dose mostly 76.9 µM), for inactives: top-dose activity change, negative = inhibition, actives largely listed as inhibitors; active = falling curve of any shape with a large fitted effect; inconclusive = falling curve, mostly with a smaller effect; inactive = flat or rising curve; cell line not stated here;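 also: intracellular cAMP measured with PDE inhibitor Ro 20-1724 present during compound exposure; potency is read from the fitted curve at half-maximal effect; % is scaled to controls: 0 for no effect and ±100 for the full control effect; nearly all actives have a fitted effect of over 65% in size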
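Cells in G418 medium, seeded 16-24 h, 37C; buffer exchange to DPBS + 1 mM CaCl2, 0.5 mM MgCl2, 0.05% BSA; cpds in DMSO + […] (300 uM stock), 30 min 37C; HTRF cAMP detection.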
Sfp inh – Sfp phosphopantetheinyl transferase inhibition; Biochemical Sfp PPTase activity, qHTS; actives 3.5% (n = 310,000); Potency, µM, inactives show max response, negative = inhibition, actives largely listed as inhibitors; Q9F4F7; active = well fitted inhibition curve with a large enough effect; inconclusive = small, poorly fitted or top-dose-only effect, or another doubt; inactive = no such curve, though single readings can be large or run the other way;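 also: the enzyme is Sfp with the accession as filed and its product quenches rhodamine fluorescence; potency is read from the fitted curve at half-maximal effect; 0% = enzyme reaction without inhibitor and -100% = no enzyme wells; top concentration of the series not given in the record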
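Reaction rates are the 30-min fluorescence difference (ex 525, em 598 nm) in wells containing 15 nM Sfp, 5 uM rhodamine-CoA and 12.5 uM BHQ-2-YbbR at pH 7.6 with 10 mM MgCl2.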
Menin-MLL FL inh – inhibitors of human menin-MLL interaction, wild-type MLL peptide. Fluorescence polarization, fluorescein-MLL peptide displacement from menin. FP activity change, % at 61.4 µM. 290,000 tested, under 10 active; inconclusive = falling polarisation curve, or a change in total fluorescence; inactive = total fluorescence flat and polarisation flat or rising; no compound was filed as active; the % refers to the polarisation; negative = inhibition;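 also: % of control where 0% means no effect; inhibitors lower the polarisation; unlabelled MLL peptide was the positive control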
* hit, by the source's call; ? = inconclusive; nt = not tested or not shown; & = joins results of further samples; [ ] = dose if it differs, or a comment. Random draw from the library; any-hit rate near 4.9%.

Under each structure: TRPV1 PAM, ClpP mod, gsp antagonist, Menin-MLL FL inh, Sfp inh, TRPML1 inh, gsp ag
O=C(NC(=S)Nc1ccc(Cl)cn1)c1cccs1
  10.7, 2.4%, 6.2%, 6.9, -15.9%, 15.1, 1.0%
C=C(CC1([C@@H](NP(=O)(c2ccccc2)c2ccccc2)[C@H]2C[C@@H]2CCCC)CC1)c1ccccc1
  1.0, -5.4%, 7.7%, 4.3&-0.8, 7.5%&6.1%, -7.2, nt
CC(C)NS(=O)(=O)c1ccc(OCC(=O)N(C)Cc2ccccc2)cc1
  11.2, -4.6%, 2.2%, 0.2, 0.5%, 30.1, 2.9%
O=C1c2ccccc2C(=O)c2c1oc(C(F)(F)F)c2C(=O)c1ccccc1
  -44.2, 0.7%, 24.1%, -0.2, -9.9%, -10.4, 5.4%
C=CCNC(=S)Nc1ccc(Cl)c(S(=O)(=O)N2CCOCC2)c1
  1.4, 0.6%, -15.0%, -1.0, 3.5%, 16.0, -17.7%
O=S1(=O)N(Cc2ccccc2F)CCCN1Cc1c(F)cccc1Cl
  -13.7, 31.6µM*, -43.7%, -2.4, 5.0%, 64.2, 7.6%[15.4 µM]
O=C(CSc1nnc(NC(=O)C2CCC2)s1)Nc1ccccc1
  -7.5, nt, -21.6%, 3.8, 16.1%, -3.7, -6.4%[15.4 µM]
Clc1ccc(CSc2nnc(-c3cccnc3)n2Cc2ccco2)c(Cl)c1
  0.3, -0.9%, -19.5%, 8.4, 35.5µM*, -21.2, -17.1%
CCOC(=O)C1(Cc2cccc(OC)c2)CCCN(C(=O)CNC(C)=O)C1 (stereo not given)
  17.9, nt, ?, 1.2, 23.6%, 0.6, ?
O=C(c1cccc(Cl)c1)N1CCN(c2ncnc3c2cnn3-c2ccccc2)CC1
  -12.3, nt, -2.3%, -0.5, 15.3%, -7.5, -1.2%
CC(Oc1ccc2ccc(=O)oc2c1)C(=O)c1ccccc1 (stereo not given)
  -6.8, 0.9%, -3.8%, -0.5, 7.3%, 2.4, 6.0%[15.4 µM]
Cc1ccc([N+](=O)[O-])c(OCCCN2C(=O)NC(C)(C)C2=O)c1
  -13.8, 1.2%, -22.6%, 2.5, 10.8%, -24.3, 12.9%
Cc1cc(C)nc(Sc2ccc(C=O)cc2[N+](=O)[O-])n1
  -0.3, nt, 8.3%, -0.1, 10.7%, -16.1, -26.4%
COc1cccc(/C=C/C(=O)NNC(=O)c2ccccc2)c1OC
  nt, nt, 7.3%, nt, nt, 12.1, 8.7%
O=C1c2ccccc2NC(c2ccc(O)cc2)N1c1ccccc1 (stereo not given)
  24.3, nt, 0.5%, -7.2, 3.5%, -3.1, -32.3%[inhibitor]
Cc1onc(-c2ccccc2Cl)c1C(=O)c1ccccc1
  -13.0, nt, 8.2%, -1.3, 5.7%, 4.1, 6.1%[15.4 µM]
O=C(N/N=C/c1ccc(Br)s1)c1ccncc1
  24.9, nt, 1.7%, -2.4, 20.0%, 10.0, 17.0%
COc1cccc(CN2CC(C(=O)N3CCSCC3)CCC2=O)c1 (stereo not given)
  nt, 0.8%, nt, nt, nt, 2.0, 0.9%
CS(=O)(=O)C1=NSC2=NC(=O)/C(=C\c3ccc(-c4ccccc4)o3)C(=N)N21
  -0.5, nt, nt, ?, -12.9%, nt, nt
Cc1ccc2c(c1)NC(=O)c1cccnc1N2
  28.8, -1.0%, -13.4%, -0.3, 11.1%, 10.3, 28.9%
O=C(CCNS(=O)(=O)c1ccc(Br)cc1)NCc1ccc(Cl)cc1
  4.0, -1.9%, 9.2%, -2.8, 30.1%[activator], 17.2, -11.4%
Cc1ccc(-c2nnn(CC(=O)N(Cc3ccccc3)C(C(=O)NC(C)(C)C)c3ccncc3)n2)o1 (stereo not given)
  -4.4, -2.0%, -20.8%, 5.6, ?, 25.4, 16.9%
COc1ccc(C2=CC(=O)CC(c3ccccc3)C2)cc1 (stereo not given)
  -3.5, nt, -11.8%, -3.5, 0.8%, 9.7, ?
Cc1csc(NC(=O)c2ccc(OCC3CCCO3)cc2)n1 (stereo not given)
  -1.0, nt, -10.2%, -6.2, 16.8%, -5.7, -4.5%[15.4 µM]
COC(=O)c1cc(NC(=O)c2cccc(Cl)c2)c(=O)oc1/C=C/Nc1cc(C)cc(C)c1
  29.5, nt, nt, ?, -9.1%, nt, nt
Cn1c(Cn2c(=O)sc3ccccc32)nnc1SCC(=O)N1CCCCCC1
  3.2, -0.4%, -1.3%, 1.2, 16.1%, 18.7, 10.7%
CC(C)c1cc(=O)[nH]c(N2CCN(Cc3ccc4c(c3)OCO4)CC2)n1
  9.5, nt, -3.0%, -5.3, 16.1%, -2.4, -22.0%
Cc1ccc(C(=O)O/N=C/c2c(N3CCOCC3)n(C)c3ccccc23)cc1
  -7.6, ?, -14.3%, 0.5, -7.4%, 2.0, -1.6%
C/C(N)=C(/C#N)C(=O)COC(=O)C1CCN(S(=O)(=O)c2cccs2)CC1
  nt, nt, -7.1%, nt, nt, -0.1, 4.0%
Cc1cc(C)cc(NC2=C(N)C(=O)c3ccccc3C2=O)c1
  -12.1, -17.4%, 2.8%, 0.4, 17.9%, 1.1, ?

An excerpt of these results, as a markdown table.
| structure | TRPV1 PAM | ClpP mod | gsp antagonist | Menin-MLL FL inh | Sfp inh | TRPML1 inh | gsp ag |
| --- | --- | --- | --- | --- | --- | --- | --- |
| COC(=O)c1cc(NC(=O)c2cccc(Cl)c2)c(=O)oc1/C=C/Nc1cc(C)cc(C)c1 | 29.5 | nt | nt | ? | -9.1% | nt | nt |
| Cn1c(Cn2c(=O)sc3ccccc32)nnc1SCC(=O)N1CCCCCC1 | 3.2 | -0.4% | -1.3% | 1.2 | 16.1% | 18.7 | 10.7% |
| CC(C)c1cc(=O)[nH]c(N2CCN(Cc3ccc4c(c3)OCO4)CC2)n1 | 9.5 | nt | -3.0% | -5.3 | 16.1% | -2.4 | -22.0% |

Next compounds follow:
Under each structure: TRPV1 PAM, ClpP mod, gsp antagonist, Menin-MLL FL inh, Sfp inh, TRPML1 inh, gsp ag
CCOC(=O)CCc1c(C)c2ccc(OC3CCCCC3=O)c(C)c2oc1=O (stereo not given)
  -2.7, 3.9%, -10.3%, 0.9, 4.3%, 16.9, 2.3%
Cc1ccc(CNS(=O)(=O)c2cc3c4c(c2)CCN4C(=O)CC3)cc1
  13.1, -23.1%, 13.8%, nt, nt, 5.8, 26.8%
COc1ccc(CC(=O)NCC2CCCCC2)cc1OC
  -2.1, 0.3%, 6.7%, -0.2, 9.4%, 7.6, ?
CC(C)C(NC(=O)c1ccccc1)C(=O)NC1=NCCS1 (stereo not given)
  12.7, -0.1%, 3.8%, 0.2, 3.4%, 29.6, -7.0%
Cc1[nH]n(-c2ccccc2)c(=O)c1/C=N/n1c(C)nc2ccccc2c1=O
  16.5, -4.9%, -1.2%, 7.3, -19.4%, -11.8, 14.8%
COc1cc(C)c(C(C)C)cc1S(=O)(=O)n1cnc(C)c1
  -17.1, 0.6%, 11.4%, 1.0, -3.7%, 20.1, ?
CN(C)CCNC(=O)c1cccc2nc3cccc(F)c3nc12
  nt, -4.3%, ?, nt, nt, -4.4, ?
CN(c1ccccc1)S(=O)(=O)c1ccc(Cl)c(C(=O)Nc2nc3ccccc3[nH]2)c1
  11.8, -20.5%, -9.6%, 6.8, 12.4%, 23.8, 0.5%
COc1cccc(CN2CCN(Cc3ccc(OC)c(OC)c3)CC2CCO)c1 (stereo not given)
  9.6, nt, 4.8%, -0.1, 7.1%, -0.6, -5.1%[15.4 µM]
Cc1ccc[n+](CC(=O)Nc2cc(C(F)(F)F)ccc2N2CCOCC2)c1
  4.0, -1.8%, 7.7%, 4.5, 2.3%, -27.7, 20.6%
CCOC(=O)C1=C(C)N(C)C(=O)NC1c1cccc(O)c1 (stereo not given)
  12.8, -4.4%, -1.4%, -1.2, 6.8%, -8.9, -35.7%[inhibitor]
Cc1ccc(CNC(=O)COC(=O)CCOc2ccc(C)cc2)cc1
  -2.9, nt, 1.8%, nt, nt, 22.4, -2.4%[15.4 µM]
CCOC(=O)c1sc(NC(=O)CCN2CCC(C)CC2)c(C(=O)OCC)c1C
  -4.7, nt, 0.1%, -0.3, 12.1%, 1.5, 4.0%[15.4 µM]
CCOc1ccc(N(CC(=O)NC2CCCC2)C(=O)CSc2nnc(COc3ccccc3)o2)cc1
  0.7, 0.9%, -10.6%, 0.8, 5.8%, -8.1, -0.6%
Cc1cc(=O)[nH]c(SCC(=O)Nc2ccc(Br)cc2)n1
  -2.2, nt, -8.6%, 1.4, 23.9%, 5.2, -7.7%[15.4 µM]
CC(C)CNC(=S)Nc1ccc(S(N)(=O)=O)cc1
  7.7, 3.7%, 4.2%, -10.9, -15.0%, 21.5, ?
CN(C(=O)COC(=O)C(Cc1ccccc1)NC(=O)c1ccccc1)c1ccccc1 (stereo not given)
  -12.6, 1.2%, -4.2%, 1.2, 12.5%, -19.0, -5.1%
CC(C)NC(=O)/C(C#N)=C\c1ccc(N(C)C)c(Br)c1
  -0.3, nt, -24.1%, -0.1, -1.7%, 27.5, 11.7%[15.4 µM]
CN(C(=O)c1cccnc1)c1nc(-c2ccccc2)cs1
  12.8, 1.8%, -7.4%, -0.7, 1.3%, 1.9, 3.5%
COCCNc1nc2c(c(=O)n(C)c(=O)n2C)n1Cc1cccc(C)c1
  15.0, -0.2%, -33.3%, 0.1, 3.6%, 5.1, 1.0%
CCOC(=O)c1c(C)nc2sc3c(c2c1-c1ccc(OC)cc1)NC(c1ccc(OC)cc1)NC3=O (stereo not given)
  1.2, 33.0%, 10.9%, -0.3, 1.7%, 37.4, 3.6%
Cn1c(CSCC(=O)Nc2ccccc2)nnc1SCc1ccccc1
  -5.0, nt, 3.3%, 7.5, -1.7%, 17.2, -27.5%[15.4 µM]
CCn1c2c(c3cc(C(=O)O)ccc31)CCCC2=O
  3.5, ?, -14.1%, 8.6, 19.1%, -8.5, 2.8%
CCOC(=O)C1CCN(c2ncnc3c2oc2ccc(Br)cc23)CC1
  -4.3, ?, -15.7%, 0.1, ?, -3.9, 7.4%
COc1ccccc1NC(=O)N1CCC(C(=O)c2ccc(Cl)cc2)CC1
  -13.8, nt, -9.3%, 6.5, 6.3%, -7.7, -34.8%

Screens (PubChem BioAssay)
